Beta apoptosis: blocks beta cell apoptosis; INS-1E cytokine-induced death, ATP luminescence, 48 h; percent of positive-control rescue, neutral wells zero; 300,000 tested, 0.8% active; protection from apoptosis, % (test concentration not listed);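 active means all replicates at 75% or more, or half of them and the mean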;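 further: 0% = cytokine-treated negative control wells and 100% = positive control rescue; higher means more ATP so stronger rescue from cytokine killing; wells of about 40 µL received 100 nL stock; the first replicate is given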
E coli growth: blocks Escherichia coli growth. AID 1053175. OD600, 23 h; stronger effect = lower value. 330,000 tested, 0.21% active. OD600 absorbance (no concentration beside the values);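 active means OD600 absorbance below the run mean of sample wells minus 3.6 SD, in any replicate, cut at about 0.56 in these data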;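 further: stock transfer was 300 nL into about 60 µL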
FGF22 binding: binders of recombinant human FGF22 by thermal shift. AID 651658. calls only at 9.99 µM. 340,000 tested, 1.5% active. Q9HCT0. SYPRO orange fluorescence; percent of sucrose octasulfate shift, DMSO zero;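 active means melting point raised past a set limit in the mean and every replicate; three in four hits are not shown here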
Target sequence (Q9HCT0 whole entry, looked up): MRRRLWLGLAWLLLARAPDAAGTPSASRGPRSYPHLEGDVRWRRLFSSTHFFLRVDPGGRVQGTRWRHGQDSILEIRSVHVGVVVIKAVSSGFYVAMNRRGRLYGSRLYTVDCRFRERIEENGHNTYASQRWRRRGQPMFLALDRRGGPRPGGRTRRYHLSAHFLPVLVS
MLL AF4-AF9 inh: inhibitors of human MLL-AF4/AF9 interaction; AlphaScreen, biotin-AF4 peptide binding to FLAG-AF9; 350,000 tested, 0.47% active; inhibition, % at 10 µM; P42568; AID 651704;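 active means every replicate reaching a set inhibition limit, whatever the replicate mean, cut at about 25% in these data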;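 further: 0% = plate neutral control median and 100% = total signal loss; the record names both 10 and 1 µM as test concentration; the first replicate is given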
Target sequence (P42568 whole entry, looked up): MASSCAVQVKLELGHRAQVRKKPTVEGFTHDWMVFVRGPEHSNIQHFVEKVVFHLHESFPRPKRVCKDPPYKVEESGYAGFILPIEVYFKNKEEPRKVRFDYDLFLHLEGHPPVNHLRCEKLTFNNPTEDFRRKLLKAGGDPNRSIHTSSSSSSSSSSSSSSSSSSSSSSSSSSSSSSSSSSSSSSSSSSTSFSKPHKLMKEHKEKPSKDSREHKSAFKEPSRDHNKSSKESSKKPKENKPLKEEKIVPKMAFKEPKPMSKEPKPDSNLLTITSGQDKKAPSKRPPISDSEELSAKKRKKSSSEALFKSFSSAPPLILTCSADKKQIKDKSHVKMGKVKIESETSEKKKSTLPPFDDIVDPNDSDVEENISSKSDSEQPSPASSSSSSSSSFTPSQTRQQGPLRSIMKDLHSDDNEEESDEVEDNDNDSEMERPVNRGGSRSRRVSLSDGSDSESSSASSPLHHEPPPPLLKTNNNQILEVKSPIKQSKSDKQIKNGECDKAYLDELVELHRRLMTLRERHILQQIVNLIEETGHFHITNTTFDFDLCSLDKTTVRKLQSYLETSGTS
Bfl-1 A1 inh: inhibitors of the anti-apoptotic protein A1, read as caspase activation; MEF A1-2A-BIM cells, Caspase-Glo 3/7 luminescence, 3 h; percent of clofoctol response, vehicle zero; caspase activation, % (no concentration beside the values); 330,000 tested, 0.066% active; AID 2462;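 active means over half of replicate activation scores above 10%, or exactly half above 10 with the replicate mean above 10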;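 further: wells of about 30 µL received 50 nL stock; many hits fall short of the cut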
T cruzi inh: blocks replication of Trypanosoma cruzi; inhibition, % (concentration not given with the values); AID 1885; 300,000 tested, 1.4% active; T. cruzi beta-gal in NIH3T3, luminescence, 90 h;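 active means mean inhibition across valid replicates above about 55%, limit read from the data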;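 further: signal also drops with host cell toxicity which is not excluded here; 0% = plate median of DMSO wells and 100% = zero luminescence signal; higher percent means less beta-gal luminescence so fewer parasites; stock transfer was 50 nL into about 50 µL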
UCH37 DUB inh: blocks the human deubiquitinase UCH37. purified proteasome/UCH37, Ub-AMC cleavage fluorescence. inhibition, % (no concentration beside the values). Q9Y5K5. 330,000 tested, 0.33% active;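 active means mean of two replicates above 20%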;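 further: 0% = compound-free wells with enzyme and 100% = wells lacking proteasome; stock transfer was 100 nL into about 20 µL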
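Test system – human UCH37 enzyme supplied as purified proteasome complex · Incubation – 30 min preincubation with enzyme, 25 min cleavage at room temperature · Detection – AMC fluorescence from Ub-AMC cleavage, excitation 355 nm, emission 460 nm · Benchmarks – no-proteasome wells (full inhibition) and compound-free wells (no inhibition)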
Ecoli rRNA inh: inhibitors of bacterial rRNA selective over humanized ribosomes | E. coli WT GFP vs humanized-ribosome RFP mutants, fluorescence, 24 h; stronger effect = lower value; DMSO median 0, no signal -100 | GFP signal change (wild-type ribosome), % (test concentration not listed) | 350,000 tested, 1.6% active | AID 720706;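 active means significant combined selectivity score with lowered wild-type GFP, culture density cut under 30%, mutant RFP and density less affected; inactive means any of these conditions unmet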; further: one replicate is shown; some compounds called inactive have numbers as strong as hits
Ecoli rRNA inh OD600: second read-out of Ecoli rRNA inh, no call of its own (marks repeat the call); OD600 change, %; measured here: OD600 growth;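 optical density of the mix in the first replicate; 0 = DMSO median and -100 = no signal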
Ecoli rRNA inh RFP: recorded beside Ecoli rRNA inh, whose call it bears; RFP signal change, %; measured here: RFP humanized mutant strains;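 first replicate; 0 = DMSO median and -100 = no signal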
* marks the source's active call; other numbers are inactive results; i = inactive; / = not tested or not shown. These rows are one share of the data, so the mix of outcomes need not match the whole.

SMILES | Beta apoptosis | E coli growth | FGF22 binding | MLL AF4-AF9 inh | Bfl-1 A1 inh | T cruzi inh | UCH37 DUB inh | Ecoli rRNA inh | Ecoli rRNA inh OD600 | Ecoli rRNA inh RFP
O=C(c1cc([N+](=O)[O-])cc([N+](=O)[O-])c1)N(c1ccccn1)c1ccccn1 | -7.1 | 0.692 | / | / | 1.5 | 48.5 | 3.3 | / | / | /
Cc1nc2ccccc2c2c(N)cccc12 | / | 0.707 | i | 0.5 | / | / | 3.7 | 6.0 | 12.6 | 0.4
COc1ccc(C2C(C#N)=C(N)N(c3sc4c(c3C#N)CCCC4)C3=C2C(=O)CC(C)(C)C3)cc1 (centres undefined) | 1.8 | 0.68 | / | / | -1.0 | 43.9 | -1.4 | / | / | /
COc1ccc(C2=NN(C)C(=NCc3ccccc3)SC2)cc1 | 1.9 | 0.661 | i | 7.8 | -0.2 | -24.5 | -1.2 | -24.5 | -26.4 | -1.8
NS(=O)(=O)c1cccc(NC(=O)CN2CCc3ccccc32)c1 | 1.8 | 0.708 | i | -1.4 | 0.2 | 0.9 | 3.4 | 0.0 | 8.7 | 51.4
CCCC(=O)Nc1nnc(SCC(=O)N2CCCCC2)s1 | -7.2 | 0.683 | i | 3.3 | 0.2 | -2.0 | 1.2 | 3.6 | 10.2 | -3.6
CCCC1C2C(=O)N(c3ccc(OC)cc3)C(=O)C2ON1c1ccccc1 (centres undefined) | -13.3 | 0.667 | / | / | 0.5 | -4.6 | -1.1 | / | / | /
CCc1ccccc1NC(=S)Nn1cnnc1 | -5.4 | / | i | -13.5 | -2.8 | / | / | 6.1 | 11.7 | 0.7
COc1ccc(C)cc1NC(=O)CCC(=O)Nc1nnc(C(F)(F)F)s1 | 1.8 | 0.73 | / | / | 0.3 | -9.9 | 0.4 | / | / | /
CNS(=O)(=O)c1cccc(C(=O)NNC(=O)c2ccc(COc3ccccc3)cc2)c1 | 2.0 | 0.705 | i | 0.6 | 0.2 | -2.0 | 3.9 | / | / | /
CN(C)/C=C/C(=O)c1ccccc1OCc1cnc(Cl)s1 | -3.8 | 0.674 | i | -1.9 | 1.1 | -7.3 | 4.1 | 3.6 | -11.4 | 1.7
COc1ccc(NC(=O)Cn2c(=O)oc3cc(S(=O)(=O)N4CCCC4)ccc32)cc1 | -5.5 | 0.768 | i | -2.9 | -0.2 | 1.2 | 4.5 | -0.1 | 1.4 | -1.1
COC(=O)/C=C/C(=O)Nc1ccc(O)c(Cl)c1 | / | 0.707 | i | 6.8 | 0.1 | -61.6 | 4.2 | / | / | /
CC(=O)c1cccc(CN2CCCC(C(=O)c3ccc4c(c3)OCO4)C2)c1 (centres undefined) | 3.8 | 0.686 | i | -2.9 | -0.9 | 43.0 | -1.5 | -4.1 | 2.5 | -2.0
Cn1c(SC(C(=O)Nc2ccc(F)cc2)c2ccccc2)nc2ccccc21 (centres undefined) | -3.4 | 0.697 | i | -0.9 | 0.5 | 3.2 | 45.0* | -19.0 | -14.8 | 0.0
CCCCNC(=O)c1ccc(Cn2c(=S)[nH]c3c([nH]c4ccc(OC)cc43)c2=O)cc1 | 101.5* | 0.68 | i | -1.8 | 50.9* | -2.8 | -1.6 | 3.8 | 1.3 | -10.2
O=C(O)c1ccc(CNCc2ccc(Cl)cc2Cl)cc1 | -0.4 | 0.753 | / | / | 0.0 | -7.6 | 5.0 | / | / | /
Nc1nc(SCc2cccc(Br)c2)n[nH]1 | / | 0.667 | i | -4.9 | 0.4 | -21.1 | 2.5 | 2.4 | 1.6 | 4.0
Cn1c(SCC(=O)N2CCCc3ccccc32)nc2cccnc21 | -3.0 | 0.744 | / | / | 0.4 | -6.5 | 4.5 | / | / | /
Cc1ccc(NC(=O)Cn2c(=O)n(CCCC(=O)NCc3ccco3)c(=O)c3ccccc32)cc1 | 3.8 | 0.836 | / | / | -0.1 | -8.6 | 0.0 | / | / | /
CCN(CC)S(=O)(=O)c1ccc(N2CCOCC2)c(NC(=O)C2=COCCO2)c1 | 9.7 | 0.715 | i | -9.0 | -0.2 | 17.2 | -0.4 | -3.9 | -5.1 | 1.6
ON=C(CCc1ccccc1)c1ccccc1 | / | 0.654 | i | 1.0 | / | / | -1.7 | -28.0 | -49.5 | -9.9
CCN1CCN(Cc2ccc(NC(=O)c3cc(NC(=O)c4cc(-c5ccc(OC)cc5)n[nH]4)cc(OC)c3)cc2C(F)(F)F)CC1 | 9.7 | 0.62 | i | 6.5 | -0.9 | 44.7 | 2.0 | -36.0 | -2.8 | 38.0
CCc1cccc2c(C(=S)N3CCOCC3)c[nH]c12 | -4.2 | 0.699 | i | -0.7 | 0.7 | -2.9 | -0.2 | -1.1 | 1.4 | 0.9
Cc1ccccc1N1C(=O)C(Oc2ccc(Cl)cc2)C1CNCC1CCCO1 (centres undefined) | -3.4 | 0.713 | i | 3.0 | -0.2 | 1.5 | 2.9 | -17.7 | -14.2 | -1.6
Cc1ccc(NS(=O)(=O)c2ccc(NC(=O)CN(c3cc([N+](=O)[O-])ccc3C)S(C)(=O)=O)cc2)c(C)c1 | 106.0* | 0.615 | i | 5.6 | 0.7 | 51.3 | 2.7 | -5.9 | -6.8 | -8.6
CCN(C[C@H]1N[C@@](CC)(C(=O)OC)[C@H]2C(=O)N(Cc3ccccc3)C(=O)[C@@H]12)C(=O)Nc1ccc(Cl)cc1 | / | 0.71 | i | -2.3 | / | / | 3.3 | -45.7 | -78.0 | -17.6
O=C(CS(=O)(=O)Cc1ccccc1)Nc1ccccn1 | -5.6 | 0.717 | / | / | -1.1 | -14.7 | 0.4 | / | / | /
COc1ccc(C(=O)CSc2nc(-c3ccccn3)nc(C)c2Cl)cc1 | -10.0 | 0.692 | i | 1.2 | 0.0 | 7.3 | 6.9 | 11.4 | -3.8 | 0.6

Gathered by group, the entries above containing a Cl atom.
SMILES | Beta apoptosis | E coli growth | FGF22 binding | MLL AF4-AF9 inh | Bfl-1 A1 inh | T cruzi inh | UCH37 DUB inh | Ecoli rRNA inh | Ecoli rRNA inh OD600 | Ecoli rRNA inh RFP
CN(C)/C=C/C(=O)c1ccccc1OCc1cnc(Cl)s1 | -3.8 | 0.674 | i | -1.9 | 1.1 | -7.3 | 4.1 | 3.6 | -11.4 | 1.7
COC(=O)/C=C/C(=O)Nc1ccc(O)c(Cl)c1 | / | 0.707 | i | 6.8 | 0.1 | -61.6 | 4.2 | / | / | /
O=C(O)c1ccc(CNCc2ccc(Cl)cc2Cl)cc1 | -0.4 | 0.753 | / | / | 0.0 | -7.6 | 5.0 | / | / | /
Cc1ccccc1N1C(=O)C(Oc2ccc(Cl)cc2)C1CNCC1CCCO1 (centres undefined) | -3.4 | 0.713 | i | 3.0 | -0.2 | 1.5 | 2.9 | -17.7 | -14.2 | -1.6
CCN(C[C@H]1N[C@@](CC)(C(=O)OC)[C@H]2C(=O)N(Cc3ccccc3)C(=O)[C@@H]12)C(=O)Nc1ccc(Cl)cc1 | / | 0.71 | i | -2.3 | / | / | 3.3 | -45.7 | -78.0 | -17.6
COc1ccc(C(=O)CSc2nc(-c3ccccn3)nc(C)c2Cl)cc1 | -10.0 | 0.692 | i | 1.2 | 0.0 | 7.3 | 6.9 | 11.4 | -3.8 | 0.6

Reprinted from above, two compounds:
SMILES | Beta apoptosis | E coli growth | FGF22 binding | MLL AF4-AF9 inh | Bfl-1 A1 inh | T cruzi inh | UCH37 DUB inh | Ecoli rRNA inh | Ecoli rRNA inh OD600 | Ecoli rRNA inh RFP
COc1ccc(C2C(C#N)=C(N)N(c3sc4c(c3C#N)CCCC4)C3=C2C(=O)CC(C)(C)C3)cc1 (centres undefined) | 1.8 | 0.68 | / | / | -1.0 | 43.9 | -1.4 | / | / | /
COc1ccc(C2=NN(C)C(=NCc3ccccc3)SC2)cc1 | 1.9 | 0.661 | i | 7.8 | -0.2 | -24.5 | -1.2 | -24.5 | -26.4 | -1.8
